SARS PLpro yeast – inhibitors of SARS-CoV papain-like protease in yeast; AID 485353; S. cerevisiae expressing SARS-CoV PLpro, growth rescue; control for the full effect not named in the record; actives 0.19% (n = 330,000); Potency, µM (top dose mostly 32.9 µM), for inactives: at the top dose activity, positive = growth rescue; active means well fitted rising curve with a large enough effect; inconclusive means small, poorly fitted or top-dose-only effect; inactive means no such curve, though single readings can be large or run the other way; further: 0% is about no effect; nearly all actives have a fitted effect of over 55% in size; growth read by luminescence after 48 h
MARV entry inh – inhibitors of Marburg virus binding or cell entry; Marburg virus pseudotyped entry inhibition, cell reporter; control for the full effect not named in the record; about a third of the inactives were read at about 46 µM; Potency, µM (doses to about 37.8 µM), inactives show at the top dose activity change, negative = inhibition, usual class: inhibitors; actives 1.8% (n = 300,000); AID 540276; active = well fitted inhibition curve with a large enough effect; inconclusive = small, poorly fitted or top-dose-only effect, or effect the other way; inactive = flat fitted curve, though single readings scatter; tested in HEK293 cells; about a fifth of its hits are not listed in these tables; further: on the % scale 0 is the no-effect control and ±100 the full control effect; luciferase read-out
NS1 function inh – influenza NS1 inhibition; actives 0.4% (n = 270,000); S. cerevisiae slowed by influenza A NS1, growth recovery by OD600; Potency, µM (series often up to 46.1 µM), for the others: at the top dose activity, positive = more growth; active means well fitted rising curve with a large enough effect; inconclusive means small, poorly fitted or top-dose-only effect; inactive means no such curve, though single readings can be large or run the other way; further: nearly all actives have a fitted effect of over 50% in size
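OD600 was taken as the measure of yeast growth restored by compound in an NS1-expressing S. cerevisiae strain. Cells had been washed out of glucose medium and diluted 1:100 into galactose -URA medium, pH 6.0.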
2A StopGo – FMDV 2A StopGo reporter, luciferase signal. human cells with a luciferase reporter of 2A StopGo recoding; control for the full effect not named in the record. Potency, µM (top dose mostly 57.9 µM), for inactives: at the highest dose signal change, negative = less light. actives 1.2% (n = 410,000); active = well fitted falling curve with a large enough effect; inconclusive = small, poorly fitted or top-dose-only effect; inactive = no such curve, though single readings can be large or run the other way; tested in HEK293T cells; further: on the % scale 0 is the no-effect control and ±100 the full control effect; nearly all actives have a fitted effect of over 45% in size; luciferase light after 4 h
Cruzain noTriton – inhibitors of Trypanosoma cruzi cruzain without detergent. actives 2.3% (n = 200,000). purified cruzain, Z-FR-AMC fluorescence, no detergent. Potency, µM, without a hit: max response, negative = inhibition, usual class: inhibitors. AID 1476. P25779;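 further: plate controls were enzyme without inhibitor for no effect and buffer without enzyme for full effect; nearly all actives have a fitted effect of over 40% in size; top concentration of the series not given in the record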
Target sequence (P25779 123-467 limits assumed): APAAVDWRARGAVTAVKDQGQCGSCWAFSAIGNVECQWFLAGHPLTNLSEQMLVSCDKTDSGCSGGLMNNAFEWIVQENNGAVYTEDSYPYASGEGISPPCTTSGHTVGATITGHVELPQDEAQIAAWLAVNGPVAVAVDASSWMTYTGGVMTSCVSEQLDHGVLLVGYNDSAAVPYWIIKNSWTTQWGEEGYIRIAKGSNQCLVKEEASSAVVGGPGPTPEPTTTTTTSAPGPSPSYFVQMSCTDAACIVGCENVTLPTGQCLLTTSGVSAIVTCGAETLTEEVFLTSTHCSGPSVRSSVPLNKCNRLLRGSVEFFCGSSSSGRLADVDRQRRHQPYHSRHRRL
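Purified cruzain at 1.5 nM, pre-incubated 15 min with compound at room temperature in 100 mM sodium acetate pH 5.5, 5 mM DTT, 0.00005% Triton X-100. Reaction started with 2 uM Z-FR-AMC; AMC fluorescence increase over 60 s gives rate.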
RE007 growth inh – less growth of the S. pombe RE007 Vpr strain; actives 0.21% (n = 360,000); S. pombe RE007 Vpr strain, BacTiter-Glo ATP luminescence, 24 h; control for the full effect not named in the record; Potency, µM (top dose mostly 92.2 µM), for the others: top-dose activity change, negative = less growth; AID 651644; active = well fitted falling curve with a large enough effect; inconclusive = small, poorly fitted or top-dose-only effect; inactive = no such curve, though single readings can be large or run the other way;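 further: on the % scale 0 is the no-effect control and ±100 the full control effect; nearly all actives have a fitted effect of over 50% in size; the assay follows cell death caused by Vpr and the record does not say whether a fall means rescue or toxicity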
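Fission yeast strain RE007, carrying one chromosomally integrated HIV-1 vpr copy, was seeded at OD 0.01 in PMG+AL medium with 23 nL pinned compound. After 24 h at 30 °C and 99% humidity, viability was read by BacTiter-Glo luminescence.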
LASV entry inh – blocks Lassa virus binding to or entry into cells | AID 540256 | actives 1.2% (n = 300,000) | Lassa virus pseudotype entry inhibition, cell reporter; control for the full effect not named in the record | Potency, µM (titrated, usually from 37.9 µM), for the others: top-dose activity change, negative = inhibition, actives largely listed as inhibitors; active means well fitted inhibition curve with a large enough effect; inconclusive means small, poorly fitted or top-dose-only effect, or effect the other way; inactive means flat fitted curve, though single readings scatter; tested in HEK293 cells; further: on the % scale 0 is the no-effect control and ±100 the full control effect; nearly all actives have a fitted effect of over 50% in size; luciferase read-out
Cruzain Triton – cruzain (T. cruzi) inhibition with detergent | P25779 | purified cruzain, Z-FR-AMC fluorescence, 0.01% Triton | Potency, µM, inactives show max response, negative = inhibition, most hits filed as inhibitors | actives 0.43% (n = 200,000) | AID 1478;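 further: plate controls were neutral wells for no effect and buffer without enzyme for full effect; nearly all actives have a fitted effect of over 40% in size; top concentration of the series not given in the record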
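15 min RT preincubation of 1.5 nM cruzain with compound, then 2 uM Z-FR-AMC added; kinetic AMC fluorescence, 60 s delta. Triton X-100 0.01%, pH 5.5.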
* = called active by the depositor; ? = inconclusive; nt = no result given; & = joins results of further samples; [ ] = remark or other dose. Unless noted, the call rests on the fitted dose curve; in most records, active means well fitted curve in the direction sought with a large enough effect; inconclusive means small, poorly fitted or top-dose-only effect, or another doubt; inactive means no such curve, though single readings can be large; an effect the other way counts as inactive or inconclusive. Potency means the concentration at half of the fitted maximal effect.

SMILES	SARS PLpro yeast	MARV entry inh	NS1 function inh	2A StopGo	Cruzain noTriton	RE007 growth inh	LASV entry inh	Cruzain Triton
Cc1nnc(SC(C)C(=O)NCC2CCCO2)n1-c1ccccc1 (stereo unspecified)	-12%	12%	-3%	22%	7%	-3%	28%	4.5%
COc1ccc(/C=N\NC(=O)c2c(C)nc3ccc(Br)cn23)cc1	?	-9%	1%	12%	-8%	11%	?	-7.9%
COCC(=O)Nc1ccc(Nc2ccccc2)cc1	-4%	-9%	?	25%	25µM*	1%	-2%	4.7%
CC(=O)Nc1ccc(S(=O)(=O)N2CCC(Oc3ccc(-n4cnnn4)cc3)CC2)cc1	1%	?	8%	?	4%	2%	?	-7.2%
COc1ccccc1C(=O)Nc1nc(-c2ccc(Br)cc2)ns1	nt	-5%[46.1 µM]	nt	-8%	5%	nt	-1%[46.1 µM]	0.1%
O=C(NC(Cc1ccccc1)C(=O)O)NC12CC3CC(CC(C3)C1)C2 (stereo unspecified)	2%	nt	29%	-9%	nt	-11%	nt	nt
Cc1cccc(CN2C(=O)c3ccccc3S(=O)(=O)c3ccc(C(=O)N4CCCC4)cc32)c1	nt	-2%[46.1 µM]	nt	-7%	?	nt	?	-1.6%
C=C1CCN(c2ccc(C(=O)NCc3ccccc3)cc2[N+](=O)[O-])CC1	-13%	nt	5%	-5%	nt	-18%	nt	nt
CN1C(=O)/C(=C/c2ccc(OC(=O)c3ccco3)cc2)SC1=S	-2%	18%[46.1 µM]	-16%	25%	nt	-7%	-10%	nt
Cc1cc2cc(CN(Cc3ccc4c(c3)OCO4)Cc3nnnn3C3CCCC3)c(=O)[nH]c2cc1C	6%	-4%&-27%	-11%	-13%	21%	-12%	-30%	-0.5%
O=C(CSc1nnc(Cc2ccccc2)n1C1CCCCC1)N1CCOCC1	-3%	-1%	-6%	46%[activator]	1%	-1%	12%	-2.8%
COc1cc(/C=N/NC(=O)c2nc(C)cc(C)n2)ccc1O	3%	20%	3%	32%[activator]	-4%	4%	?	-6.8%
COc1ccc(-n2c(Cc3cccn3C)nnc2SCC(=O)Nc2cc(C)cc(C)c2)cc1	-1%	-41%&-41%	?	17%	?	3%	-1%	-4.5%
CCCc1c(C)nc2ccc(OC)cc2c1SCCC(=O)O	6%	-12%	-5%	-12%	-13%	1%	-8%	-1.8%
O=C(CCCCC(=O)Nc1c(I)cc(I)c(C(=O)O)c1I)Nc1c(I)cc(I)c(C(=O)O)c1I	nt	nt	nt	-19%	-11%	6%	nt	-0.3%
COC(=O)c1ccc(=O)n(CC(=O)c2ccc(Cl)cc2)c1	0%	3%[46.1 µM]	-2%	13%	nt	19%	nt	nt
COc1cc(OC)cc(C(=O)NCCCNC(=O)c2ccccn2)c1	-2%	18%	10%	-12%	nt	38%	0%	nt
COc1ccc(NC(=O)CN2CCOCC2)cc1	0%	11%	-4%	-10%	-4%	22%	-4%	3.5%
Cc1ccc(NC(=O)COC(=O)CN2C(=O)NC(C)(C)C2=O)cc1S(=O)(=O)N1CCOCC1	0%	1%	nt	24%	nt	-9%	5%	nt
COc1cc(NC(=O)c2cc(-c3ccc(C)cc3)on2)cc(OC)c1OC	2%	nt	-2%	-1%	nt	-23%	nt	nt
COc1ccc(C)cc1S(=O)(=O)N(C)CC(=O)NC1CCCCCC1	0%	-5%[46.1 µM]	nt	8%	nt	-7%	-12%[46.1 µM]	nt
O=C(COc1ccc(Cl)cc1)N1CCN(c2ccc([N+](=O)[O-])c(N3CCCCC3)c2)CC1	-1%	?	11µM*	-25%	-7%	-14%	-20%	-3.9%
CC(=O)OCC(OC(C)=O)C(OC(C)=O)C(OC(C)=O)C(=O)Nc1ccccc1C (stereo unspecified)	-2%	4%	-3%	0%	-10%	9%	?	-1.0%
O=C(CCNC(=O)c1ccco1)Nc1cccc(C(F)(F)F)c1	-1%	2%[46.1 µM]	5%	-3%	nt	7%	-10%[46.1 µM]	nt
O=C(N/N=C/c1cccnc1)c1ccc2c(c1)OCO2	1%	nt	5%	14%	nt	13%	nt	nt
CCCCc1cc2c(c(NC(C)=O)n1)c(=O)oc1ccccc12	?	0%	-7%	nt	?	nt	4%	-4.8%
NC(=O)CCn1nc(-c2ccc(Cl)cc2)c2ccccc2c1=O	1%	-16%	-3%	0%	9%	4%	?	-1.6%
COc1ccc(N(C)S(=O)(=O)c2cccc3nsnc23)cc1	-1%	1%[46.1 µM]	nt	-19%	nt	-3%	3%[46.1 µM]	nt
CC(=O)c1ccc(N2CCN(C(=O)c3ccco3)CC2)c(F)c1	-5%	?	3%	-1%	-23%	-14%	-2%	-0.3%
COc1ccc(N(CC(=O)NCc2ccc3c(c2)OCO3)S(=O)(=O)c2ccccc2[N+](=O)[O-])c(OC)c1	0%	-22%	-6%	9%	nt	0%	-8%	nt
CC1(C)OC(C)(C)/C(=C/Nc2ccccc2)C1=O	-7%	-15%	-3%	2%	-14%	-5%	2%	-10%
Cc1cccc(-c2ncc(CN3CCC(CO)(CCCc4ccccc4)CC3)cn2)c1	0%	nt	-3%	?	nt	1%	nt	nt
CCN(CC)c1ccc(C=Nc2ccc(N(C)C)cc2)c(O)c1	-14%	-3%	-10%	37%[activator]	-21%	-26%	21%	-4.1%
Nc1c(C(=O)O)sc2nc(-c3ccc(F)cc3)cc(-c3ccccc3)c12	3%	nt	12%	8%	nt	-19%	nt	nt
COc1cc(NC(=O)CCCNC(=O)Cn2cnc3sc4c(c3c2=O)CCCC4)cc(OC)c1OC	16%	18%[46.1 µM]	-1%	-14%	nt	9%	-3%	nt
O=C(C1CCC1)N1CCC(O)(c2cccc(F)c2)CC1	0%	-2%[46.1 µM]	nt	-16%	nt	-10%	-6%	nt
CSc1n[nH]c(NCc2cccs2)n1	2%	?	8%	15%	-2%	-6%	0%	0.2%
CCOc1ccc(CCNC(=O)CN2C(=O)COc3ccc(S(=O)(=O)N4CCCC4)cc32)cc1	nt	5%[46.1 µM]	nt	-12%	-5%	nt	0%[46.1 µM]	1.2%
Cc1ccc(NC(=O)c2ccccc2NS(=O)(=O)c2ccc(Cl)s2)cc1	-88%	10µM*	-33%	35%[activator]	-22%	-1%	?	-16%
CC(OC(=O)Cn1cnc2c1c(=O)n(C)c(=O)n2C)C(=O)NC1(C#N)CCCCC1 (stereo unspecified)	-1%	1%	nt	-6%	nt	3%	16%	nt
Nc1nnc(SCC(=O)NNC(=O)c2ccccc2)s1	5%	?	nt	-2%	nt	5%	-1%[46.1 µM]	nt
C=CCn1c(SCCC)nc2sc3c(c2c1=O)CCc1ccccc1-3	6%	6%	-4%	-26%	?	2%	?	-6.3%
O=C(CCCN1C(=O)C2CC=CCC2C1=O)Nc1ccccc1Cl (stereo unspecified)	4%	nt	2%	-2%	nt	8%	nt	nt
O=C(NCc1ccccc1)c1cc(=O)nc2sc(-c3ccccc3)nn12	0%	0%	-8%	0%	9%	18%	0%	-4.5%
Cn1nnnc1SCC(=O)NNC(=O)c1ccc(Br)cc1	-1%	27%[46.1 µM]	nt	-7%	nt	4%	18%	nt
COc1ccc(S(=O)(=O)n2nc(-c3ccco3)nc2NCc2ccc(OC)c(OC)c2)cc1	nt	-20%[46.1 µM]	nt	2%	?	nt	-13%[46.1 µM]	-5.8%
Nc1ccccc1C(=O)NNC(=O)C(=O)/C=C(\O)c1ccccc1	-1%	-7%	7%	39%[activator]	nt	-13%	?	nt
COc1cc(CN(C)Cc2cc(=O)oc3cc(C)c(Cl)cc23)ccc1OC(F)F	-10%	?	-9%	?	nt	-9%	?	nt
COc1ccc(S(=O)(=O)N2CCC3(CC2)CC(=O)c2ccccc2O3)cc1	3%	15%	nt	-14%	nt	5%	?	nt
Cc1ccc(C)c(OCC(=O)Nc2cccc(S(=O)(=O)NC3=NCCCCC3)c2)c1	8%	11%	-4%	?	nt	21%	-2%	nt
O=c1c2ccccc2nc(/C=C/c2ccc(Br)cc2)n1CCCO	-6%	nt	-2%	0%	nt	-12%	nt	nt
Cc1ccnc(NC(=O)Nc2ccc3c(c2)OCO3)c1	-5%	?	nt	15%	nt	-18%	?	nt
Cc1cc(N=NC(=O)c2ccccc2O)c2ccccc2c1O	-8%	?	nt	-18%	nt	-15%	-21%	nt
CC(C)(C)NC(=O)COC(=O)c1ccc(NC(=O)CC#N)cc1	2%	15%[46.1 µM]	8%	-13%	nt	3%	0%[46.1 µM]	nt
Cc1ccccc1CSc1nnc(C)c(=O)[nH]1	-3%	nt	-11%	-2%	-5%	1%	nt	0.7%
COC(=O)C1C(=O)C2=C(CC1C)Nc1ccccc1NC2c1cccs1 (stereo unspecified)	0%	-8%[46.1 µM]	nt	8%	nt	-3%	3%	nt
COCCNC(=O)c1ccccc1-c1nc(-c2ccccc2Cl)no1	1%	0%	-5%	13%	-4%	-3%	5%	2.2%
CCOc1ccc(/C=C2\SC(=S)N(NS(=O)(=O)c3ccc(C)cc3)C2=O)cc1OC	-1%	?	11%	-2%	nt	-6%	13%[46.1 µM]	nt
CC(=O)c1ccc(NC(=O)c2ccc3c(Cl)c4c(nc3c2)CCCC4)cc1	-9%	4%	0%	22µM*	17%	-20%	3%	-6.8%
CN(C(=O)C1CCOC1)c1nnc(-c2cccnc2)s1 (stereo unspecified)	1%	19%	-7%	58%[activator]	-6%	-14%	?	-1.0%
Cc1c(Cl)cccc1NC(=O)c1cc(-c2ccc3c(c2)OCO3)on1	nt	6%[46.1 µM]	nt	11%	-9%	nt	26%[46.1 µM]	-2.3%
CCn1ccc(C(=O)Nc2ccc(S(=O)(=O)Nc3ccccc3OC)cc2)n1	2%	-21%	-13%	?	1%	-4%	-26%	-0.9%
CC(C)(C)c1cc(C(=O)Nc2ccccc2)ccn1	14%	4%	0%	3%	1%	-16%	?	-4.7%
